FGF22 binding – shifts melting point of recombinant human FGF22; Q9HCT0; AID 651658; calls only at 9.99 µM; recombinant FGF22 thermal shift, SYPRO orange fluorescence; percent of sucrose octasulfate shift, DMSO zero; 1.5% of 340,000 active;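 active means melting point raised past a set limit in the mean and every replicate; three in four hits are not shown here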
Target sequence (Q9HCT0 whole entry, looked up): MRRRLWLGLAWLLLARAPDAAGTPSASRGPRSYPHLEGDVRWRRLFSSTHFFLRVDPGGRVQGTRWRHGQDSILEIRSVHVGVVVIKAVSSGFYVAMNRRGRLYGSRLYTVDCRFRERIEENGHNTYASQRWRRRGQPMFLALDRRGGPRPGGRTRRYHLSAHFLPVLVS
Ecoli growth – E. coli growth inhibition; Escherichia coli growth, OD600, 23 h; active compounds read low; OD600 absorbance (test concentration not listed); 0.21% of 330,000 active; AID 1053175;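 active means OD600 absorbance below the run mean of sample wells minus 3.6 SD, in any replicate, cut at about 0.56 in these data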;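 further: stock transfer was 300 nL into about 60 µL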
B2AR ag – agonists of human beta-2 adrenergic receptor inducing internalization. 0.43% of 340,000 active. Am2.2-beta2AR cells, FAP receptor internalization, flow cytometry; reference of the scale not given here. P07550. response, % (no concentration beside the values);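 active means response above a set limit, near 3 SD of response in nonfluorescent compounds, cut at about 42% in these data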;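 further: stock transfer was 100 nL into about 11 µL; a reference agonist was the positive control; negative values mostly stem from fluorescent compounds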
Target sequence (P07550 whole entry, looked up): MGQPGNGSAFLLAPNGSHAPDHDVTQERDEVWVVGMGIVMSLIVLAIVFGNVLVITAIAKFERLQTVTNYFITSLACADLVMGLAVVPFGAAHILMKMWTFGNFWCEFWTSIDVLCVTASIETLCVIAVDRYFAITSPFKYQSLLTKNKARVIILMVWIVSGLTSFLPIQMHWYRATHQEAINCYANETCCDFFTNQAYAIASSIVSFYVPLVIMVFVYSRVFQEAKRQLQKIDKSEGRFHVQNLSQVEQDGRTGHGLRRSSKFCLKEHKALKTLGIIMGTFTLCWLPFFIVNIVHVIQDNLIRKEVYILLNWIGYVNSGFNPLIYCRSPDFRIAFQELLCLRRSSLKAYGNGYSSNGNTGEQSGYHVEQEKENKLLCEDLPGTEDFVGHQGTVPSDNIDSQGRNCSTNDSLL
HNF4A DNA FP – change in binding of human HNF4 alpha to DNA; HNF4a-FITC DNA binding, fluorescence polarization, 1 h; 0.3% of 360,000 active; activity change, % at 10 µM; AID 1224865; in the data active means activity change above about 30%, passing the limit was not always enough;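 further: controls were the assay level and a saturating level of protein; the project sought stronger binding though the title names inhibitors; some compounds called inactive have numbers as strong as hits; positive values seem to mean higher polarization but the record does not say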
Target sequence (P41235 whole entry, looked up): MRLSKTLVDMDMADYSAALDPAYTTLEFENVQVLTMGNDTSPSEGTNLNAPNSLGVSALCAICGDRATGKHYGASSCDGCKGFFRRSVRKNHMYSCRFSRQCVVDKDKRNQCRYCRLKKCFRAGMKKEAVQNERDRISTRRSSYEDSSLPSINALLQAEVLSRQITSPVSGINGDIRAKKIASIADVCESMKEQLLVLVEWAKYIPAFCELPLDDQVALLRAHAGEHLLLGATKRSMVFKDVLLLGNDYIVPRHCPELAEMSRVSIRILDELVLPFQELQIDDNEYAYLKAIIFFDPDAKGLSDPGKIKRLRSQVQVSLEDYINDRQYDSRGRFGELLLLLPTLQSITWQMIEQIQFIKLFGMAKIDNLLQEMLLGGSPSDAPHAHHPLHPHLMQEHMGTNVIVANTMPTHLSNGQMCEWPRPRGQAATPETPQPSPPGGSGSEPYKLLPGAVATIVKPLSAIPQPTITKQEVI
UCH37 inh – blocks the human deubiquitinase UCH37; Q9Y5K5; purified proteasome/UCH37, Ub-AMC cleavage fluorescence; inhibition, % (concentration not given with the values); 0.33% of 330,000 active;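 active means mean of two replicates above 20%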;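 further: 0% = compound-free wells with enzyme and 100% = wells lacking proteasome; stock transfer was 100 nL into about 20 µL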
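Assay system: Proteasome-bound UCH37. Buffer or medium: pH 7.4 Tris-HCl (50 mM) with ovalbumin, ATP-MgCl2, DTT. Incubation: 30 min preincubation with enzyme, 25 min cleavage at room temperature. Measured by: fluorescence, ex 355 nm, em 460 nm. Read-out basis: percent inhibition. Control set: wells without proteasome as full block, compound-free enzyme plus substrate as uninhibited.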
ALR H2O2 inh – inhibitors of human sulfhydryl oxidase ALR; P55789; 3.8% of 290,000 active; AID 485317; inhibition, % (concentration not given with the values); purified ALR, DTT oxidation, H2O2 HRP-luminol luminescence;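 active means mean and each replicate at 75% or more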;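 further: stock transfer was 7.5 nL into about 7.5 µL; 0% = neutral wells and 100% = wells with inactivated enzyme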
Ecoli rRNA inh – selective bacterial rRNA inhibition in E. coli. GFP signal change (wild-type ribosome), % (test concentration not listed). AID 720706. E. coli WT GFP vs humanized-ribosome RFP mutants, fluorescence, 24 h; active compounds read low; DMSO median 0, no signal -100. 1.6% of 350,000 active;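 active means significant combined selectivity score with lowered wild-type GFP, culture density cut under 30%, mutant RFP and density less affected; inactive means any of these conditions unmet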; further: one replicate is shown; some compounds called inactive have numbers as strong as hits
Ecoli rRNA inh OD600 – further read-out of Ecoli rRNA inh, marked with its call; OD600 change, %; measured here: OD600 growth;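 optical density of the mix in the first replicate; 0 = DMSO median and -100 = no signal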
Ecoli rRNA inh RFP – recorded beside Ecoli rRNA inh, whose call it bears; RFP signal change, %; measured here: RFP humanized mutant strains;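 first replicate; 0 = DMSO median and -100 = no signal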
Active calls of the source: *; i = inactive; · = no result given.

SMILES	FGF22 binding	Ecoli growth	B2AR ag	HNF4A DNA FP	UCH37 inh	ALR H2O2 inh	Ecoli rRNA inh	Ecoli rRNA inh OD600	Ecoli rRNA inh RFP
Cc1ccc(C(=O)C2=C(O)C(=O)N(Cc3cccnc3)C2c2ccc(Br)cc2)o1 (configuration not stated)	i	·	-2	1.6	·	5	-24	-26	4.5
O=C(COC(=O)c1ccc(-c2ccc([N+](=O)[O-])cc2)o1)NC(=O)NC12CC3CC(CC(C3)C1)C2	i	0.75	-5	0.3	5.4	-4	-4	-3	-5.1
CC(=O)c1cccc(NC(=O)C(C)OC(=O)C2=NNC(=O)CC2)c1 (configuration not stated)	i	0.7	6	-2.6	2.5	-6	·	·	·
COc1cccc(C2C(C#N)=C(N)Oc3cc(C)n(Cc4ccccn4)c(=O)c32)c1OC (configuration not stated)	·	0.71	-2	-1.6	-0.5	·	·	·	·
Cc1ccc(S(=O)(=O)CC(C)N2CCN(C3CCCCC3)CC2)cc1 (configuration not stated)	·	0.72	5	5.8	-0.1	1	·	·	·
Cc1cc(S(=O)(=O)NC[C@H]2O[C@@H](n3ccc(N)nc3=O)[C@H](O)[C@@H]2O)c(C)s1	i	·	·	3.9	·	·	5	8	-3.4
OCCC1CN(Cc2nc3ccccc3s2)CCN1CCc1ccccc1 (configuration not stated)	i	0.66	16	1.4	1.5	·	11	3	12
CC1CCCC(NC(=O)COC(=O)CN2C(=O)C3CCCCC3C2=O)C1C (configuration not stated)	i	0.7	-3	-4.4	-1.4	1	3	7	0.5
CCOC(=O)c1c(-c2ccccc2)oc2ccc(OC)cc12	·	0.8	-17	1.2	-136	-1	·	·	·
Cc1sc2nc(CSC(C)C(=O)N(C)CC(=O)Nc3ccccc3C(F)(F)F)[nH]c(=O)c2c1C (configuration not stated)	i	0.7	-2	6.0	1.3	60	-2	3	1.7
N=C(c1cccc([N+](=O)[O-])c1)N1CCCCC1	i	0.7	3	2.6	2.1	-10	21	22	1.0
CC1CN(CC(O)COC(c2ccc(Cl)cc2)c2ccc(Cl)cc2)CC(C)O1 (configuration not stated)	·	0.67	8	0.1	2.6	-8	·	·	·
CCOc1ccc(S(=O)(=O)N(CC)CC(=O)N2CCCC2)cc1C	i	0.64	-9	-2.0	2.3	-1	-3	-6	-6.6
COc1ccc(N(CC(=O)N/N=C(\C)c2ccc(C)cc2)S(=O)(=O)c2ccccc2)cc1	i	·	-3	-3.8	·	-2	4	11	-1.2
CCOc1ccc(NC(=O)c2ccc(-n3cccn3)nc2)cc1	i	0.73	-10	2.4	-6.0	1	12	12	0.8
CN(C)/C=C(/C#N)C(=O)c1cccc(Oc2ccc(C(C)(C)C)cc2)c1	·	0.73	11	-1.2	1.9	-13	·	·	·
COc1cccc(CN2CCC(Oc3ccc(C(=O)N4CCCCC4)cc3)CC2)c1O	i	0.65	-7	1.4	0.4	84*	8	5	1.6
Cc1cc(=O)n2[nH]c(-c3ccc(Cl)cc3)cc2n1	·	0.68	6	-1.7	0.1	63	·	·	·
N#CC1=C(N)Oc2cc(O)ccc2C1C1CCCCC1 (configuration not stated)	·	0.75	9	-0.1	-14	26	·	·	·
Cc1ccc(C)c(NC(=O)C2CCN(S(=O)(=O)c3ccc4c(c3)NC(=O)CO4)CC2)c1	i	0.7	5	1.5	6.0	-2	-13	-8	-4.1
COC(=O)C1=C(C)N(c2ccc(F)cc2)/C(=C/c2ccc(O)cc2)C1=O	i	0.74	-21	4.5	8.3	-20	20	15	3.5
CC[C@H](C)[C@@H](CNC)NC[C@@H](Cc1ccc(O)cc1)NCC(C)(C)C	i	·	0	-0.7	4.9	·	6	7	5.7
CC(C)C[C@@H](CNCC(=O)[C@H](CC(C)C)NC(=O)c1[nH]cnc1C(=O)N[C@@H](C)CN)NC(=O)c1nc[nH]c1C(=O)N[C@@H](C)C(=O)O	i	·	0	0.3	·	·	21	15	6.6
COC(=O)c1cc(NC(=S)N2CCN(c3ccccn3)CC2)cc(C(=O)OC)c1	i	0.69	-3	0.3	6.9	2	11	20	-2.7

The closing 6 records of the section above lead into the next.
SMILES	FGF22 binding	Ecoli growth	B2AR ag	HNF4A DNA FP	UCH37 inh	ALR H2O2 inh	Ecoli rRNA inh	Ecoli rRNA inh OD600	Ecoli rRNA inh RFP
N#CC1=C(N)Oc2cc(O)ccc2C1C1CCCCC1 (configuration not stated)	·	0.75	9	-0.1	-14	26	·	·	·
Cc1ccc(C)c(NC(=O)C2CCN(S(=O)(=O)c3ccc4c(c3)NC(=O)CO4)CC2)c1	i	0.7	5	1.5	6.0	-2	-13	-8	-4.1
COC(=O)C1=C(C)N(c2ccc(F)cc2)/C(=C/c2ccc(O)cc2)C1=O	i	0.74	-21	4.5	8.3	-20	20	15	3.5
CC[C@H](C)[C@@H](CNC)NC[C@@H](Cc1ccc(O)cc1)NCC(C)(C)C	i	·	0	-0.7	4.9	·	6	7	5.7
CC(C)C[C@@H](CNCC(=O)[C@H](CC(C)C)NC(=O)c1[nH]cnc1C(=O)N[C@@H](C)CN)NC(=O)c1nc[nH]c1C(=O)N[C@@H](C)C(=O)O	i	·	0	0.3	·	·	21	15	6.6
COC(=O)c1cc(NC(=S)N2CCN(c3ccccn3)CC2)cc(C(=O)OC)c1	i	0.69	-3	0.3	6.9	2	11	20	-2.7
O=c1cc(C(F)(F)F)nc(-c2cccnc2)[nH]1	i	0.71	0	-0.5	0.1	-17	3	-3	-1.9
C/C(=N\NC(=O)CNC(=O)c1cccc(F)c1)c1ccc2ccccc2c1	i	·	1	0.4	·	-6	5	8	13
c1ccc(C(c2ccccc2)N2CCN(Cc3nnnn3C3CCCC3)CC2)cc1	·	0.77	21	2.4	4.7	-24	·	·	·
CN(c1ccccc1)S(=O)(=O)c1ccc(C(=O)N2CCCC2)cc1	i	0.69	-3	0.4	2.8	-18	-2	6	-2.0
CC(=O)Oc1ccc(C(=O)Nc2ccccc2C(=O)NCC(C)C)cc1	·	0.66	-11	-0.1	0.8	0	·	·	·
Cc1nn(C)c(C)c1CN(C)C(=O)c1cnn2c1NC(c1ccccc1)CC2C(F)(F)F (configuration not stated)	·	0.73	4	3.0	2.2	-3	·	·	·
CN(C(=O)Nc1ccccc1)C1CCCc2ccccc21 (configuration not stated)	i	0.69	3	2.9	3.5	·	-1	-6	-5.0
COc1ccccc1-c1ccc([C@@H]2C[C@H]3[C@H](CON3C)CN2C(=O)c2ccc(-c3ccccc3)cc2)cc1	i	·	·	-1.4	·	·	8	6	-1.6
CSCC[C@@H](C(=O)NCCCCCCCCCCC(=O)N1CCN(C(=O)OC(C)(C)C)CC1)n1cc(CCO)nn1	i	·	8	0.8	2.6	1	-19	-25	-4.4
Cc1cccc(N2CCN(C(=O)NCc3ccc(F)cc3)CC2)c1C	i	0.64	-4	3.6	3.1	1	4	5	-3.0
O=c1[nH]c(N2CCCCC2)nc2c1CCCC2	·	0.69	2	-3.1	1.4	·	·	·	·
CNC(=O)CSc1nc2nn(-c3ccccc3)c(=O)c-2c2n1CCCCC2	i	0.69	-8	0.3	3.2	-5	10	-2	-7.6
Fc1cccc(Cc2c(-c3cccc(Cl)c3)nc3ccc(Br)cn23)c1	i	·	·	42*	·	·	-2	-13	0.3
Cc1ccc2nc(-c3ccc(C#N)cc3)c(Cc3ccccc3C(F)(F)F)n2c1	i	·	·	5.4	·	·	-3	-12	-1.9
COc1ccc(/C=C(\C#N)C(=O)OCCNC(=O)c2ccncc2)cc1	i	0.72	-10	2.3	9.1	1	1	8	-3.2
CN(C(=O)COc1ccccc1)c1nnc(-c2ccncc2)s1	·	0.73	-6	-2.5	-15	-4	·	·	·
O=C(c1ccco1)N1CCN(c2c([N+](=O)[O-])nn(-c3cccc(Cl)c3)[n+]2[O-])CC1	i	0.65	-11	3.3	7.3	-26	-4	-7	-6.5
CC(C)c1nc2cc(C(=O)N3CCNC(=O)C3c3ccc(F)cc3)ccc2o1 (configuration not stated)	i	0.72	-6	-0.4	2.3	-8	-5	-2	1.3
Cc1cc(C)n2nc(C(=O)OCC(=O)NCc3ccc(Cl)cc3)nc2n1	i	0.7	-6	-5.8	4.0	·	·	·	·
CC1Cc2ccccc2N1C(=O)CSc1nnc(C2CC2)n1C (configuration not stated)	i	0.7	-10	-0.4	0.4	-4	15	20	0.6
O=C1NC[C@@H](CCCCN2CCN(CCC3CCCCC3)C(=O)C2=O)N(CCC2CCCCC2)C1=O	i	·	·	1.8	·	·	-21	-50	7.1
C=CCSC1=N/C(=C\C=C\c2ccco2)C(=O)S1	·	·	1	1.4	·	99*	·	·	·
Cc1ccc(S(=O)(=O)NC(=O)c2ccc(Br)o2)cc1	i	0.67	0	-0.5	6.0	0	10	-8	-5.3
FC(F)(F)c1cc(-c2ccco2)nc(NCc2cccnc2)n1	·	0.69	-14	3.6	-36	25	·	·	·

Record cards (already shown).
Profile of `Cc1ccc(S(=O)(=O)CC(C)N2CCN(C3CCCCC3)CC2)cc1` (configuration not stated) = FGF22 binding: ·; Ecoli growth: 0.72; B2AR ag: 5; HNF4A DNA FP: 5.8; UCH37 inh: -0.1; ALR H2O2 inh: 1; Ecoli rRNA inh: ·; Ecoli rRNA inh OD600: ·; Ecoli rRNA inh RFP: ·
Profile of `CC(=O)c1cccc(NC(=O)C(C)OC(=O)C2=NNC(=O)CC2)c1` (configuration not stated) = FGF22 binding: i; Ecoli growth: 0.7; B2AR ag: 6; HNF4A DNA FP: -2.6; UCH37 inh: 2.5; ALR H2O2 inh: -6; Ecoli rRNA inh: ·; Ecoli rRNA inh OD600: ·; Ecoli rRNA inh RFP: ·

(listing goes on)
SMILES	FGF22 binding	Ecoli growth	B2AR ag	HNF4A DNA FP	UCH37 inh	ALR H2O2 inh	Ecoli rRNA inh	Ecoli rRNA inh OD600	Ecoli rRNA inh RFP
COC(=O)C1=C(C(=O)OC)[C@@H]2N(C)c3ccccc3[C@@]23C[C@@H](C(=O)OC)N(C(=O)c2ccc(Br)cc2)C3=N1	i	·	-9	4.1	-0.2	2	3	26	-9.3
COc1cccc2sc(/N=C/N(C)C)nc12	i	·	-1	1.5	·	-6	2	2	0.6
Cc1ccc2sc(NC(=O)C3CC3)nc2c1C	i	0.66	-3	2.4	3.0	-3	-9	-24	-1.0
COc1cccc(C(=O)Nc2sc3c(c2C(=O)O)CCCC3)c1	i	0.69	6	3.1	3.4	-1	-7	-4	2.5
O=C(O)c1cscc1Cc1cccs1	i	·	·	3.5	·	·	7	8	-3.0
Cc1cc(C(=O)CSc2nnc(-c3ccccc3)n2-c2ccccc2)c(C)n1-c1ncn[nH]1	·	0.7	14	1.6	1.7	-6	·	·	·
Cc1ccc(NC(=O)C2CCCN2C(=O)NCc2ccccc2)cc1 (configuration not stated)	·	0.74	-2	-2.0	-2.0	-6	5	14	2.0
Cc1cc(NC(=O)c2cc(-c3cccs3)on2)no1	i	0.66	2	-0.2	-4.0	4	11	13	-5.2
Cc1ccc(CN2CCN(Cc3ccc(-n4cccn4)cc3)CC2CCO)cc1 (configuration not stated)	i	0.71	2	2.7	3.7	-2	7	-1	0.5
O=C(Nc1ccccc1)NC1(C(=O)NCc2ccc3c(c2)OCO3)CCCCC1	·	0.7	1	3.1	3.4	-6	·	·	·
C(=NN1CCCCCC1)c1ccc2c(c1)OCO2	i	0.67	-5	5.5	3.1	·	6	-2	-11
O=C(O)CCN1C(=O)c2ccc(Oc3ccc([N+](=O)[O-])cc3)cc2C1=O	i	0.61	-9	2.6	2.1	-8	-6	-1	-4.4
COc1cccc(C2C(C(=O)c3cc4ccccc4o3)=C(O)C(=O)N2CCN2CCOCC2)c1 (configuration not stated)	i	0.64	2	2.3	6.1	1	1	0	-1.0
COc1ccccc1NC(=O)c1ccc(S(=O)(=O)N2CCCC2)cc1	i	0.7	-3	0.7	4.2	·	-5	-6	1.8
O=C(NC(=S)Nc1ccc(F)c(Cl)c1)C1CC1	i	0.62	-3	-1.0	1.3	-1	-18	-14	-2.7

Not all compounds are listed (hit frequency here may not be typical).
